miR-21 FLuc: miR-21 reporter, rising signal | HeLa miR-21 FLuc reporter, luciferase, 48 h | Potency, µM (highest dose often 38.3 µM), inactives show at the top dose reporter change, positive = more light | AID 2288 | 340,000 tested, under 10 active; active = well fitted rising curve with a large enough effect; inconclusive = small, poorly fitted or top-dose-only effect; inactive = no such curve, though single readings can be large or run the other way;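 also: % of control where 0% means no effect; miR-21 action dims this reporter so a rising signal means less miR-21 action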
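Luminescence from a firefly luciferase reporter carrying a miR-21 binding site downstream, stably expressed under a CMV promoter in HeLa cells that make miR-21 endogenously, reports miRNA modulation after 48 h compound exposure up to approximately 40uM final.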
Rango-impB inh: prevents formation of the Rango-importin beta complex; Potency, µM (highest dose often 92.2 µM), without a hit: top-dose inhibition of complex formation; Rango CFP/YFP FRET sensor + importin beta, 45 min; Q14974; 0.031% of 340,000 active; active = rising FRET ratio curve, often small or poorly fitted; inconclusive = mostly compound fluorescence or quenching in the first reads; inactive = flat curves in all reads;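 also: potency is read from the fitted curve at half-maximal effect; 0% = DMSO wells and 100% = buffer wells lacking importin beta; nearly all actives have a fitted effect of over 15% in size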
Target sequence (Q14974 whole entry, looked up): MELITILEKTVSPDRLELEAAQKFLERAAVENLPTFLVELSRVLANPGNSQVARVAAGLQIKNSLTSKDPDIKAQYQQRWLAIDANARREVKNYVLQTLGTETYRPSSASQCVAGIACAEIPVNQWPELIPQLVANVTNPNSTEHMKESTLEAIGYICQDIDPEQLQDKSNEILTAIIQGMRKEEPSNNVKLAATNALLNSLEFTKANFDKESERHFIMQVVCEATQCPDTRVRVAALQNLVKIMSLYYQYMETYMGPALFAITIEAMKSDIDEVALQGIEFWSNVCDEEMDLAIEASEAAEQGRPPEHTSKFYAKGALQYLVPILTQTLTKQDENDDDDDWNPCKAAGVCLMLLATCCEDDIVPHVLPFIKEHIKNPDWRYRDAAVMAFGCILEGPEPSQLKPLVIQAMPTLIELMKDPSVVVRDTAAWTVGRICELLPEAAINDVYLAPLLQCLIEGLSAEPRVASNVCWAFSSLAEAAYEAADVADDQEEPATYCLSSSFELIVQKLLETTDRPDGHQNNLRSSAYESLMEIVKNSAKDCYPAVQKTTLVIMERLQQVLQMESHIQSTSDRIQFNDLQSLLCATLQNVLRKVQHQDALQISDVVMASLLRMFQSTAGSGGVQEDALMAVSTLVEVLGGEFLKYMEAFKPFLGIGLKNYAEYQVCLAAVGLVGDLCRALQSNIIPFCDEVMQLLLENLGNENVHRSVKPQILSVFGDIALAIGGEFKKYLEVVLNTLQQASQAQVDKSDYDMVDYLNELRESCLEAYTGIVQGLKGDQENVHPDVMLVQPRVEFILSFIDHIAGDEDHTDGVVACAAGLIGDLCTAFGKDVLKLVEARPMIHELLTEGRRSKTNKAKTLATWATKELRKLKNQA
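Inhibition scored from the CFP 486 nm/YFP 530 nm FRET ratio 45 min after adding 0.125 microM importin beta to 50 nM Rango biosensor preincubated 5 min with compound (room temperature, PBS with DTT, Tween-20, BSA). No-importin wells as positive control.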
Rango release inh: prevents RanGTP from dissociating the Rango-importin beta complex. O95149+P62826. Biochemical FRET Rango-importin beta, RanGTP-induced dissociation. Potency, µM (highest dose often 46.1 µM), for the others: top-dose activity change, negative = inhibition. 0.071% of 340,000 active; active means falling FRET ratio curve, often poorly fitted, with flat reads before Ran was added; inconclusive means other falling curves, or compound fluorescence or quenching; inactive means flat or rising ratio curve;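 also: potency is read from the fitted curve at half-maximal effect; % of control where 0% means no effect; nearly all actives have a fitted effect of over 45% in size; -100% = wells without RanGTP and RCC1; the record marks most hits as doubtful in a second field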
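Quantitative HTS using a FRET biosensor: 0.1 uM Rango, 0.25 uM importin beta, 0.6 uM Ran, 2 mM GTP, 0.2 uM RCC1 final, PBS with DTT, Tween-20 and BSA. Post-read taken 45 min after Ran addition.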
GLA inh pH 4.5: alpha-galactosidase A (human) inhibition, pH 4.5; P06280; purified enzyme, 4-MU-alpha-Gal fluorescence, pH 4.5; activity change, negative = inhibition, % at 105 µM; 230,000 tested, under 10 active; inconclusive = small, poorly fitted or top-dose-only inhibition, or a rising curve; inactive = flat fitted curve, though single readings scatter; no compound was filed as active;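 also: 0% = full activity with enzyme and -100% = basal without enzyme; dose as in the result columns while the protocol names 77 µM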
* marks the source's active call; other numbers are inactive results; u = inconclusive; x = no result given. Some of the compounds tested (hit frequency here may not be typical).

nr	compound	GLA inh pH 4.5	Rango release inh	Rango-impB inh	miR-21 FLuc
1	COc1ccc(/C=C2/C(=O)N(c3cccc(F)c3)N=C2C)c(OC)c1	x	4.6%	-0.1%	-3.3%
2	CN(C)/C=C/C(=O)c1ccc(-c2ccc(Cl)cc2Cl)o1	-3.4	u	1.0%	-18.1%
3	CCC1CCCCN1C(=O)c1ccc(OC2CCN(C(=O)CCOC)CC2)cc1 (configuration not stated)	x	-13.8%	-2.5%	-14.1%
4	C/C(=N\Nc1nc(Nc2ccccc2)nc(N2CCOCC2)n1)c1cccs1	-21.8	7.5%	0.3%	-11.8%
5	CCCCN(C(=O)NCCCCCCNC(=O)N(CCCC)C1CCS(=O)(=O)C1)C1CCS(=O)(=O)C1 (configuration not stated)	x	48.4%	6.9%	1.5%
6	Cc1ccnc(NS(=O)(=O)c2cccs2)c1	1.2	-13.2%	0.0%	-3.5%
7	CCOC(=O)Cn1c(=O)oc2cc(S(=O)(=O)NCCCc3ccccc3)ccc21	-6.0	3.9%	-0.7%	-6.9%
8	COc1cc(OC)cc(C(=O)NC(C(=O)NNC(=O)CN(C)S(=O)(=O)c2ccc(C)cc2)C(C)C)c1 (configuration not stated)	x	-11.5%	-0.3%	x
9	COc1ccc2[nH]c(CN3CCN(CC=C(C)C)C(CCO)C3)c(C)c2c1 (configuration not stated)	x	-23.4%	5.3%	-5.2%
10	O=C1CC(N2CCN(c3ccc(O)cc3)CC2)C(=O)N1c1ccc2c(c1)OCO2 (configuration not stated)	-0.5	-4.6%	2.4%	2.0%
11	O=S(=O)(O)c1ccc(N=NNc2ccc(Br)cc2)cc1	x	-6.6%	-0.5%	-12.9%
12	CCCCn1c(SCC(=O)Nc2nccs2)nc2ccccc2c1=O	-0.7	-22.3%	-2.6%	3.4%
13	CC1CCCCN1C(=O)COC(=O)Cc1c[nH]c2ccccc12 (configuration not stated)	x	-8.4%	-2.6%	x
14	COc1ccc2nc(-n3c(O)c(C4=c5ccccc5=NC4=O)[nH]c3=S)sc2c1	-3.8	11.4%	1.7%	-14.3%
15	COc1ccc(NC(=O)C2(c3ccc(NC(=O)c4ccc(OC)cc4)cc3)CCCC2)cc1	0.8	3.0%	-3.6%	-4.4%
16	COC(=O)c1sccc1Oc1ccc(F)cc1[N+](=O)[O-]	3.9	22.7%	5.6%	-1.8%
17	O=C(CC1NCCc2ccccc21)Nc1ccccc1 (configuration not stated)	0.8	4.0%	2.1%	-47.7%
18	CCOC(=O)C1CCN(S(=O)(=O)c2ccc3c(ccn3C)c2)CC1	x	8.9%	2.8%	-1.9%
19	Cn1c(-c2ccc(C(F)(F)F)cc2)cc2onc(-c3ccccc3)c2c1=O	x	0.5%	u	x
20	O=C1CC(NNC(=O)c2cccc(F)c2)C(=O)N1 (configuration not stated)	-9.9	0.9%	-3.7%	-6.2%
21	CS(=O)(=O)c1cnc(-c2ccccc2)nc1Oc1ccc(Cl)cc1	4.5	-8.3%	3.5%	3.9%
22	Cc1ccc(CNc2ccc(O)cc2)cc1	-20.3	-9.5%	2.2%	28.1%
23	CCN(CC(=O)Nc1ccc2c(c1)OCCO2)c1ccc(S(=O)(=O)N2CCOCC2)cn1	-19.4	-5.1%	-0.7%	-9.4%
24	CN1CCN(c2ccc([N+](=O)[O-])cc2NC(=O)c2cccs2)CC1	x	-15.4%	1.5%	-6.5%
25	CCc1cccc(NC(=O)CN(c2ccc(C)cc2)S(=O)(=O)c2c(C)noc2C)c1	x	1.5%	3.6%	17.8%
26	CCC(=O)NC(=S)Nc1ccc(NC(=O)c2cccc([N+](=O)[O-])c2C)cc1	-5.7	-6.3%	-3.7%	1.0%
27	O=C(COc1ccccc1Br)NCCc1nc2ccccc2[nH]1	4.6	-11.4%	2.0%	-15.0%
28	OCC1(CCOc2ccccc2)CCN(Cc2ccncc2)CC1	x	u	0.5%	3.6%
29	Cn1ncc(Br)c1C(=O)NCc1cccs1	0.0	1.6%	-0.3%	-0.2%
30	CCC(C)N(C(=O)c1csnn1)C(C(=O)NCc1ccc(F)cc1)c1ccccc1 (configuration not stated)	x	8.8%	0.2%	0.0%
31	CS(=O)(=O)N1CCCC(C(=O)c2cccc(Cl)c2)C1 (configuration not stated)	11.3	-11.4%	-1.5%	6.1%
32	COC(=O)C1=NNC(C(=O)OC)C1c1ccccc1 (configuration not stated)	x	14.9%	3.2%	x
33	Cc1ccc(C(=O)Oc2coc(CSc3nnc(NC(=O)C4CC4)s3)cc2=O)cc1	-6.2	0.0%	3.6%	-18.1%
34	CC(=O)C1=C(O)C(=O)N(c2ccc(Br)cc2)C1c1ccccc1[N+](=O)[O-] (configuration not stated)	x	-17.3%	-7.5%	-3.0%
35	COc1ccc(C(c2nnnn2CC2CCCO2)N2CCC(C(N)=O)CC2)cc1 (configuration not stated)	-5.4	7.6%	-5.0%	3.6%
36	C/C(CC(=O)Nc1cc(Cl)ccc1Cl)=N\NC(=O)COc1cccc(C)c1	x	-4.7%	2.6%	-1.4%
37	Cn1cncc1C#Cc1ccc2cc(CCO)oc(=O)c2c1	x	-11.6%	-1.6%	x
38	O=S(=O)(CCc1nc2ccccc2s1)c1ccc(Cl)cc1	2.2	0.8%	-3.9%	0.2%
39	CCN1CCC(NC(=O)Nc2cc(Cl)ccc2OC)CC1	2.3	-11.8%	0.8%	-9.0%
40	CCC1CCCCN1CCCNC(=O)c1csc2c1CCCCC2 (configuration not stated)	x	35.5%	-3.4%	-2.9%
41	O=C(CN(Cc1ccccc1F)C(=O)Cn1nnc(-c2cccs2)n1)NC1CCCCC1	-4.9	4.1%	-0.1%	-9.6%
42	Cc1c(NC(=O)Nc2ccc3c(c2)OCO3)c(=O)n(-c2ccccc2)n1C	3.2	-9.8%	3.6%	-7.4%
43	COc1ccc(C)cc1N(C(=O)COc1ccccc1)c1nc2ccccc2s1	-11.7	2.2%	-2.7%	-7.8%
44	COc1ccccc1C(=O)c1cc2ccc(O)cc2oc1=O	2.7	u	u	6.1%
45	O=C(COC(=O)/C=C/c1ccc([N+](=O)[O-])cc1)Nc1ccc2[nH]c(=O)[nH]c2c1	x	1.4%	1.8%	x
46	COC(=O)c1ccc(NC(=S)NCCc2ccc(OC)cc2)cc1	2.7	u	-0.1%	7.1%
47	Cc1nnc(SCC(=O)N2CCN(c3ccccc3)CC2)n1-c1ccccc1	1.7	9.3%	-0.7%	-1.3%
48	NC(=O)CSc1nnc(NC(=O)c2ccc3ccccc3c2)s1	x	-4.9%	-1.9%	x
49	CCOC(=O)c1sc(NC(=O)CSc2nccn2C)nc1C	x	8.1%	-3.1%	-58.2%
50	C/C=C(/C)C(=O)OC1c2c(ccc3ccc(=O)oc23)OC(C)(C)C1OC(C)=O (configuration not stated)	-4.5	2.9%	0.3%	0.7%
51	CCN(CC)CCN(C(=O)c1cc2ccccc2cc1OC)c1nc2ccc(OC)cc2s1	x	-7.0%	6.1%	27.2%
52	Cc1cccc2cc(CN(CC3CCCO3)C(=O)c3cccnc3)c3nnnn3c12 (configuration not stated)	0.3	-12.0%	-0.3%	-4.4%
53	CCC(=O)N1CCN(c2ccc(NC(=S)NC(=O)c3cc4ccccc4o3)cc2)CC1	x	8.4%	1.6%	-3.3%
54	CC(=O)Nc1ccc(S(=O)(=O)N(CCc2ccccc2)CC(=O)N/N=C/c2ccc(C(=O)O)cc2)cc1	-28.1	1.3%	-1.6%	-2.3%
55	COc1ccccc1N1CC(C)C(=O)NC1=S (configuration not stated)	0.4	12.9%	0.5%	0.6%
56	COc1cccc(NC(=O)COc2ccccc2)c1	x	u	0.0%	-52.8%
57	COc1ccc(C(=O)NC(=S)Nc2ccccc2[N+](=O)[O-])cc1OC	-3.1	2.1%	-1.0%	-2.7%
58	Cc1ccc(NS(=O)(=O)c2ccc(C(=O)OCC(=O)NCC3CCCO3)cc2)cc1 (configuration not stated)	-8.5	-0.1%	0.4%	-1.0%
59	Cc1cc(=O)[nH]c2nnc(SCC(=O)N3CC(C)OC(C)C3)n12 (configuration not stated)	x	-1.3%	4.6%	x
60	CN(Cc1ccccc1)C(=O)c1ccccc1C(=O)OCC(=O)N(Cc1ccccc1)C(C)(C)C	x	-2.5%	-0.6%	x

Quoted at random: six compounds from above
nr	compound	GLA inh pH 4.5	Rango release inh	Rango-impB inh	miR-21 FLuc
56	COc1cccc(NC(=O)COc2ccccc2)c1	x	u	0.0%	-52.8%
58	Cc1ccc(NS(=O)(=O)c2ccc(C(=O)OCC(=O)NCC3CCCO3)cc2)cc1 (configuration not stated)	-8.5	-0.1%	0.4%	-1.0%
57	COc1ccc(C(=O)NC(=S)Nc2ccccc2[N+](=O)[O-])cc1OC	-3.1	2.1%	-1.0%	-2.7%
60	CN(Cc1ccccc1)C(=O)c1ccccc1C(=O)OCC(=O)N(Cc1ccccc1)C(C)(C)C	x	-2.5%	-0.6%	x
50	C/C=C(/C)C(=O)OC1c2c(ccc3ccc(=O)oc23)OC(C)(C)C1OC(C)=O (configuration not stated)	-4.5	2.9%	0.3%	0.7%
49	CCOC(=O)c1sc(NC(=O)CSc2nccn2C)nc1C	x	8.1%	-3.1%	-58.2%

The list continues.
nr	compound	GLA inh pH 4.5	Rango release inh	Rango-impB inh	miR-21 FLuc
61	Cc1c(NC(=O)C2(c3ccccc3)CCCC2)c(=O)n(-c2ccccc2)n1C	12.9	24.0%	-1.7%	-1.4%
62	COc1cc(CC(=O)Nc2cccc(C(F)(F)F)c2)cc(OC)c1OC	2.6	20.1%	4.4%	7.7%
63	COc1ccc(/C=C(\NC(=O)c2ccc([N+](=O)[O-])cc2)C(=O)NCCN2CCOCC2)cc1	x	-16.1%	1.9%	3.2%
64	CCCCCCCCn1c(=O)c(C(=O)OCC)c(O)c2ccccc21	1.2	37.7%	u	4.0%
65	CC(=O)Nc1ccc(-c2csc(NC(=O)C3CCN(S(=O)(=O)c4cccs4)CC3)n2)cc1	-5.6	-7.7%	u	23.4%
66	CC1Sc2ccc(S(=O)(=O)NCCc3ccc(S(N)(=O)=O)cc3)cc2NC1=O (configuration not stated)	x	1.8%	-0.4%	1.8%
67	CN(CC(=O)Nc1ccc(Cl)c(Cl)c1)C(=O)C1CCCC1	x	4.7%	-4.2%	x
68	CS(=O)(=O)Nc1ccc(C(=O)Nc2ccccc2-c2ccccc2)cc1	x	5.3%	0.0%	-2.5%
69	O=C(NNS(=O)(=O)c1ccccc1)c1ccc(F)cc1	x	-4.1%	-0.5%	-1.6%
70	O=C(O)c1ccc(Cl)c(S(=O)(=O)N2CCC(Cc3ccccc3)CC2)c1	x	10.8%	1.2%	-0.3%
71	Cc1ccc(N(CC(=O)N2CCOCC2)S(=O)(=O)c2ccccc2)cc1	2.9	3.0%	2.0%	-0.7%
72	O=C(C1=C(O)C(=O)N(CCOCCO)C1c1cccc([N+](=O)[O-])c1)c1cccs1 (configuration not stated)	-3.6	-12.8%	-2.9%	-3.9%
73	CCN=C1S/C(=C\c2sccc2C)C(=O)N1CC	1.4	-4.5%	-1.7%	-66.9%
74	Cc1ccc(C2CC(c3cccs3)n3nc(N)nc3N2)cc1 (configuration not stated)	8.9	3.6%	0.3%	-20.2%
75	C/C=C/C=[N+](\[O-])C(C)/C(=N/O)c1ccc(F)cc1 (configuration not stated)	2.1	5.7%	-2.4%	-1.9%
76	Oc1ccccc1-c1cc(C(F)(F)C(F)F)nc(-c2ccccc2)n1	0.3	-13.3%	1.3%	-4.4%
77	Cc1ccc(N2CCN(C(=O)N3CCCC3)CC2)cc1Cl	-15.2	1.6%	-1.4%	-12.6%
78	CCCc1ccc(C(=O)O/N=C(\N)c2ccccn2)cc1	x	8.9%	0.7%	u
79	Cc1cc(C)n(CC(=O)Nc2cccc(C(F)(F)F)c2)n1	1.8	-12.0%	3.6%	4.4%
80	O=C(Cn1[nH]c(=O)c2ccccc2c1=O)NCCN1C(=O)S/C(=C\c2ccccc2)C1=O	x	1.4%	-5.8%	x
81	CCCc1nnc(NC(=O)c2c(O)c3c([nH]c2=O)CCCC3)s1	4.7	0.3%	-1.5%	-12.3%

Assay outcomes deposited in PubChem by National Center for Advancing Translational Sciences (NCATS).
